Bioassay records from PubChem BioAssay.
Yeast UUG start = modulators of start codon recognition fidelity in yeast. activity score, % at 18.7 µM. actives 0.13% (n = 350,000). S. cerevisiae UUG-firefly luciferase reporter, luminescence/redox ratio;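 active = replicate mean at a twofold rise or more, about +100% in these data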;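 note: firefly luciferase made from a UUG start codon reports start codon fidelity; reporter light over untreated wells divided by growth signal over untreated wells; some hits fall short of that in this replicate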
* hit, by the source's call. Only part of the results is shown, so the mix of outcomes need not match the whole.

cpd	canonical_smiles	Yeast UUG start
1	Cc1ccc(S(=O)(=O)N(C)C[C@@H]2Oc3ccc(NC(=O)c4ccncc4)cc3C(=O)N([C@H](C)CO)C[C@@H]2C)cc1	1
2	O=C(c1ccncc1)N1C[C@H]2[C@@H](c3ccccc31)[C@H](CO)N2C(=O)Nc1ccc(F)cc1	33
3	C[C@@H]1CN([C@H](C)CO)C(=O)c2cccc(NC(=O)Nc3ccccc3)c2O[C@@H]1CN(C)Cc1ccncc1	5
4	OC[C@H]1Nc2ccc(-c3cccc(F)c3)cc2[C@H]2[C@@H]1CCN2Cc1ccc(F)cc1	4
5	CCCC#Cc1ccc([C@H]2[C@@H](CO)N3CCCCN(CC4CCOCC4)C[C@@H]23)cc1	1
6	O=C(C[C@@H]1CC[C@@H]2[C@H](COC[C@@H](O)CN2CC2CCCCC2)O1)NCC1CC1	-3
7	CC(C)NC(=O)Nc1cccc2c1O[C@@H](CN(C)CC1CC1)[C@H](C)CN([C@H](C)CO)C2=O	-4
8	CN(C)C(=O)C[C@@H]1C[C@@H]2c3cc(NC(=O)c4ccc5c(c4)OCO5)ccc3O[C@@H]2[C@@H](CO)O1	8
9	CC=Cc1ccc2n(c1=O)C[C@@H]1[C@@H](CO)[C@H](C(=O)NCc3ccccc3)N(C)[C@H]21 (mixture of isomers)	-1
10	COc1cccc(-c2ccc3c(c2)[C@H]2[C@H](CCN2C(=O)Cc2ccccc2)[C@H](CO)N3)c1	1
11	C[C@H](CO)N1C[C@H](C)[C@H](CN(C)Cc2ccc(-c3ccccc3)cc2)Oc2c(NC(=O)c3cnccn3)cccc2C1=O	7
12	O=C(Nc1ccccc1)N1CCCCN2[C@H](C1)[C@H](c1ccc(-c3ccccc3)cc1)[C@@H]2CO	0
13	COc1ccc(S(=O)(=O)Nc2cccc3c2O[C@@H](CN(C)C(=O)Nc2c(C)noc2C)[C@H](C)CN([C@@H](C)CO)C3=O)cc1	-3
14	O=C1NC(=O)C(Cc2ccc(O)cc2)N1 (stereo not given)	-23
15	C[C@@H]1CN([C@@H](C)CO)C(=O)c2cccc(NC(=O)CCCCCC(=O)Nc3ccccc3N)c2O[C@@H]1CN(C)Cc1ccc(C(F)(F)F)cc1	3
16	C[C@H]1CN([C@@H](C)CO)C(=O)Cc2cc(NS(=O)(=O)c3cccs3)ccc2O[C@H]1CN(C)CC1CC1	6
17	CC(C)C#Cc1ccc([C@H]2[C@@H](CO)N3CCCCN(CC4CC4)C[C@H]23)cc1	15
18	C[C@H](NC(=O)C[C@H]1C[C@H]2c3cc(NC(=O)C4CCC4)ccc3O[C@H]2[C@H](CO)O1)c1ccccc1	-10
19	Cc1ccc(S(=O)(=O)N(C)C[C@@H]2Oc3ccc(NC(=O)Nc4ccccc4)cc3C(=O)N([C@H](C)CO)C[C@@H]2C)cc1	9
20	O=C(c1cccc(F)c1)N1CCCCN2[C@H](C1)[C@@H](c1ccc(/C=C/c3ccccc3)cc1)[C@@H]2CO	12
21	CS(=O)(=O)Nc1ccc2c(c1)[C@H]1C[C@H](CC(=O)NCc3ccccc3F)O[C@@H](CO)[C@H]1O2	-18
22	CN1[C@@H]2Cn3c(ccc(-c4ccc(F)cc4)c3=O)[C@H]1[C@@H](C(=O)NC1CCCCC1)[C@@H]2CO	-8
23	CO[C@@H]1CN(C)C(=O)c2cc(NS(=O)(=O)c3ccccc3)ccc2OC[C@H](C)N(Cc2nccs2)C[C@@H]1C	4
24	C[C@@H]1CN([C@H](C)CO)C(=O)c2cccc(NS(=O)(=O)c3ccc(F)cc3)c2O[C@@H]1CN(C)Cc1ccc(Cl)c(Cl)c1	-3
25	O=S(=O)(c1ccccc1F)N1CC[C@@H]2[C@H]1c1cc(-c3ccccc3F)ccc1N[C@@H]2CO	-1
26	CN(C)C(=O)c1ccc(-c2ccc3c(c2)[C@@H]2[C@@H](CCN2C(=O)c2ccc4c(c2)OCO4)[C@H](CO)N3)cc1	-10
27	COCC(=O)Nc1ccc2c(c1)C(=O)N(C)C[C@@H](OC)[C@H](C)CN(C(=O)c1cccnc1)[C@@H](C)CO2	-8
28	C[C@@H]1CN([C@@H](C)CO)C(=O)c2cccc(NC(=O)c3ccncc3)c2O[C@H]1CN(C)S(=O)(=O)c1ccc(Cl)cc1	-1
29	COc1ccccc1NC(=O)Nc1ccc2c(c1)OC[C@@H](C)N(Cc1ccccc1Cl)C[C@@H](C)[C@H](OC)CN(C)C2=O	-13
30	C[C@@H]1CN([C@H](C)CO)C(=O)Cc2cc(NC(=O)Cc3ccccc3)ccc2O[C@H]1CN(C)C(=O)Nc1ccc(F)cc1	-8

Structural class, those above containing an aryl methoxy group (3)
cpd	canonical_smiles	Yeast UUG start
10	COc1cccc(-c2ccc3c(c2)[C@H]2[C@H](CCN2C(=O)Cc2ccccc2)[C@H](CO)N3)c1	1
13	COc1ccc(S(=O)(=O)Nc2cccc3c2O[C@@H](CN(C)C(=O)Nc2c(C)noc2C)[C@H](C)CN([C@@H](C)CO)C3=O)cc1	-3
29	COc1ccccc1NC(=O)Nc1ccc2c(c1)OC[C@@H](C)N(Cc1ccccc1Cl)C[C@@H](C)[C@H](OC)CN(C)C2=O	-13

Further results:
cpd	canonical_smiles	Yeast UUG start
31	COCC(=O)Nc1ccc2c(c1)C(=O)N(C)[C@@H]1CC[C@@H](CC(=O)NC3Cc4ccccc4C3)O[C@H]1CO2	-1
32	O=C(c1ccccn1)N1C[C@@H]2[C@H](c3ccccc31)[C@@H](CO)N2C(=O)Cc1ccccc1	-15
33	Cc1ccc(S(=O)(=O)Nc2cccc3c2O[C@H](CN(C)CC2CCCCC2)[C@@H](C)CN([C@H](C)CO)C3=O)cc1	17
34	O=C(CC1CC1)N1[C@@H](CO)[C@@H]2c3ccccc3N(S(=O)(=O)c3ccc(F)cc3)C[C@@H]21	7
35	COc1ccc(NC(=O)N(C)C[C@@H]2Oc3ccc(NC(=O)Nc4ccccc4)cc3C(=O)N([C@@H](C)CO)C[C@H]2C)cc1	3
36	Cc1ccc(S(=O)(=O)Nc2ccc3c(c2)C(=O)N([C@@H](C)CO)C[C@H](C)[C@@H](CN(C)S(=O)(=O)c2cccs2)O3)cc1	6
37	CN1c2ccc(-c3cccc(C#N)c3)cc2[C@@H]2[C@@H](CCN2C(=O)c2cccc(F)c2)[C@@H]1CO	-7
38	O=C(CC(F)(F)F)N1C[C@H]2[C@@H](c3ccccc31)[C@H](CO)N2C(=O)CN1CCOCC1	19
39	C[C@H](CO)N1C[C@H](C)[C@@H](CN(C)Cc2ccc(C(F)(F)F)cc2)Oc2ccc(NC(=O)Nc3ccc(F)cc3)cc2C1=O	9
40	CN1CCN(C(=O)C[C@@H]2CC[C@H]3[C@@H](COC[C@H](O)CN3C(=O)C3CCCC3)O2)CC1	-3
41	O=C(c1ccccc1)N1C[C@@H]2[C@H](c3ccccc31)[C@@H](CO)N2Cc1ccccc1F	-7
42	O=S(=O)(c1ccc(F)cc1)N1CCCCN2[C@H](CO)[C@@H](c3ccc(-c4ccccc4)cc3)[C@@H]2C1	9
43	CCN(C[C@@H]1[C@@H](c2ccc(C3=CCCCC3)cc2)[C@@H](CO)N1CC1CC1)C(C)=O	-5
44	CO[C@@H]1CN(C)C(=O)c2ccc(NC(=O)c3ccccn3)cc2OC[C@@H](C)N(C(=O)C2CCC2)C[C@H]1C	11
45	C[C@@H]1CN([C@H](C)CO)C(=O)c2cc(NC(=O)CCC(F)(F)F)ccc2O[C@H]1CN(C)C(=O)Nc1ccccc1	-5
46	COc1ccc(NC(=O)Nc2cccc3c2O[C@H](CN(C)Cc2ccc(C(=O)O)cc2)[C@H](C)CN([C@H](C)CO)C3=O)cc1	-7
47	C[C@@H]1CN([C@@H](C)CO)C(=O)c2cccc(NC(=O)Nc3ccc4c(c3)OCO4)c2O[C@H]1CN(C)C(=O)NC1CCCCC1	8
48	C/C=C/c1ccc([C@H]2[C@H](CO)N(C(C)=O)[C@H]2CNC(=O)c2ccccc2)cc1	-2
49	CC(=O)N1[C@H](CO)[C@H]2c3ccccc3N(C(=O)c3ccc(F)cc3)C[C@H]21	-9
50	O=C(CC1CC1)N1CC[C@@H]2[C@H](CO)Nc3ccc(-c4ccc(F)cc4)cc3[C@@H]21	-14
51	N#Cc1cccc(-c2ccc3c(c2)[C@@H]2[C@@H](CCN2C(=O)c2ccccc2F)[C@H](CO)N3)c1	-11
52	COc1ccccc1NC(=O)N1CCCCN2[C@H](C1)[C@@H](c1ccc(-c3cccc(C#N)c3)cc1)[C@@H]2CO	7
53	CCCNC(=O)N1[C@H](CO)[C@H]2c3ccccc3N(C(=O)Nc3cccc(Cl)c3)C[C@H]21	10
54	Cc1noc(C)c1NC(=O)N(C)C[C@@H]1Oc2c(NC(=O)c3nc4ccccc4s3)cccc2C(=O)N([C@@H](C)CO)C[C@@H]1C	3
55	C[C@@H]1CN([C@@H](C)CO)C(=O)c2cccc(NC(=O)Nc3ccccc3)c2O[C@H]1CN(C)S(C)(=O)=O	4
56	C[C@@H]1CN([C@@H](C)CO)C(=O)Cc2cc(NC(=O)Nc3ccccc3)ccc2O[C@@H]1CN(C)CC1CCCCC1	1
57	COc1ccccc1CNC(=O)C[C@@H]1CC[C@@H]2[C@@H](COc3ccc(NC(=O)Nc4ccc(F)c(F)c4)cc3C(=O)N2C)O1	-11
58	CCCNC(=O)C[C@H]1CC[C@@H]2[C@H](COc3ccc(NC(=O)c4ccc(C(F)(F)F)cc4)cc3C(=O)N2C)O1	13
59	CN(C)CC#Cc1ccc([C@H]2[C@@H](CO)N3CCCCN(C(=O)C4CCCC4)C[C@@H]23)cc1	7
60	CCC(=O)N1C[C@H]2[C@@H](c3ccccc31)[C@H](CO)N2Cc1ccc(F)cc1	-4

Remaining list, next part
cpd	canonical_smiles	Yeast UUG start
61	CCC(=O)N1[C@@H](CO)[C@@H](c2ccc(-c3ccccc3)cc2)[C@@H]1CN(C)C(C)=O	0
62	CC(C)NC(=O)N1C[C@H]2[C@@H](c3ccccc31)[C@@H](CO)N2C(=O)c1cccnc1	7
63	C[C@@H]1CN([C@@H](C)CO)C(=O)c2cccc(NS(=O)(=O)c3ccccc3)c2O[C@@H]1CN(C)C(=O)Nc1ccc(F)cc1	4
64	O=C(C[C@H]1CC[C@H]2[C@@H](COC[C@@H](O)CN2Cc2ccccc2)O1)NCCCN1CCOCC1	-12
65	CN1c2ccc(C#Cc3cccnc3)cc2[C@H]2[C@H](CCN2C(=O)c2cccnc2)[C@H]1CO	-7
66	O=C(NC[C@@H]1[C@@H](c2ccccc2)[C@@H](CO)N1CC1CCCC1)C1CC1	-13
67	COc1ccc(S(=O)(=O)Nc2ccc3c(c2)CC(=O)N([C@H](C)CO)C[C@H](C)[C@H](CN(C)Cc2ccncc2)O3)cc1	3
68	C/C=C/c1ccc([C@@H]2[C@H](CO)N[C@@H]2CN(C)S(=O)(=O)c2ccccc2)cc1	-10
69	COCC(=O)Nc1ccc2c(c1)OC[C@H](C)N(CC1CCCCC1)C[C@H](C)[C@@H](OC)CN(C)C2=O	-6
70	C[C@H](O)C#Cc1ccc([C@H]2[C@H]3CN(S(=O)(=O)Cc4ccccc4)CCCCN3[C@H]2CO)cc1	4
71	C[C@H]1CN([C@@H](C)CO)C(=O)c2cccc(NC(=O)c3ccncc3)c2O[C@H]1CN(C)C	-12
72	CO[C@@H]1CN(C)C(=O)c2cc(NC(=O)c3nc4ccccc4s3)ccc2OC[C@@H](C)N(Cc2ccncc2)C[C@H]1C	33
73	O=S(=O)(c1ccccc1)N1CCCCN2[C@H](CO)[C@@H](c3ccc(C#Cc4ccccc4)cc3)[C@H]2C1	1
74	CCC(=O)N1C[C@@H](C)[C@H](OC)CN(C)C(=O)c2cc(NC(=O)c3ccccc3)ccc2OC[C@@H]1C	12
75	C[C@@H]1CN([C@@H](C)CO)C(=O)c2cc(NC(=O)Nc3ccc(C(F)(F)F)cc3)ccc2O[C@H]1CN(C)C(=O)Nc1ccc2c(c1)OCO2	-18
76	O=C(c1cnccn1)N1CC[C@@H]2[C@H](CO)Nc3ccc(-c4ccccc4)cc3[C@@H]21	-6
77	C[C@H](CO)N1C[C@H](C)[C@H](CN(C)Cc2ccc(-c3ccccc3)cc2)Oc2c(NS(=O)(=O)c3ccccc3)cccc2C1=O	24
78	CC(C)NC(=O)N1C[C@H]2[C@@H](c3ccccc31)[C@H](CO)N2Cc1ccccc1	-6
79	COCC(=O)N1CC[C@@H]2[C@H]1c1cc(C#Cc3ccc(OC)cc3)ccc1N[C@@H]2CO	-9
80	O=S(=O)(c1ccccc1F)N1CCCCN2[C@H](CO)[C@H](c3ccc(-c4cccnc4)cc3)[C@H]2C1	-4
81	CCCC#Cc1ccc([C@H]2[C@H]3CN(S(C)(=O)=O)CCCCN3[C@H]2CO)cc1	10
82	Cc1cc(C(=O)Nc2cccc3c2O[C@H](CN(C)Cc2ccncc2)[C@@H](C)CN([C@@H](C)CO)C3=O)n(C)n1	-1
83	O=C(Nc1cccc(F)c1)N1C[C@@H]2[C@H](c3ccccc31)[C@@H](CO)N2C(=O)Cc1ccccn1	20
84	CO[C@@H]1CN(C)C(=O)c2ccc(NC(C)=O)cc2OC[C@H](C)N(CC2CCCCC2)C[C@@H]1C	-6
85	CC=Cc1ccc2n(c1=O)C[C@H]1[C@H](CO)[C@@H](C(=O)NCc3ccccc3)[C@@H]2N1C (mixture of isomers)	9
86	CCCC(=O)Nc1ccc2c(c1)OC[C@@H](C)N(Cc1cncnc1)C[C@@H](C)[C@@H](OC)CN(C)C2=O	7
87	C[C@H]1CN([C@@H](C)CO)C(=O)c2cc(NC(=O)C3CC3)ccc2O[C@@H]1CN(C)S(=O)(=O)c1cn(C)cn1	-9

4 of the compounds above, field by field:
[69] COCC(=O)Nc1ccc2c(c1)OC[C@H](C)N(CC1CCCCC1)C[C@H](C)[C@@H](OC)CN(C)C2=O
  Yeast UUG start: -6

[70] C[C@H](O)C#Cc1ccc([C@H]2[C@H]3CN(S(=O)(=O)Cc4ccccc4)CCCCN3[C@H]2CO)cc1
  Yeast UUG start: 4

[71] C[C@H]1CN([C@@H](C)CO)C(=O)c2cccc(NC(=O)c3ccncc3)c2O[C@H]1CN(C)C
  Yeast UUG start: -12

[72] CO[C@@H]1CN(C)C(=O)c2cc(NC(=O)c3nc4ccccc4s3)ccc2OC[C@@H](C)N(Cc2ccncc2)C[C@H]1C
  Yeast UUG start: 33
